Screens deposited in PubChem by several laboratories.
YopH PTP inh: YopH (Yersinia) phosphatase inhibition; fluorescence Ex485/Em525; inhibition, %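 (about 10 µM by stock and volumes)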; hit rate 0.16% among 140,000;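 active = inhibition of 50% or more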;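 note: controls were vehicle for no effect and minimum signal wells for full effect; inactives centre near -20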
Arbovirus inh: antivirals against arbovirus infection | arbovirus infection cell-based antiviral screen | inhibition, % at 10 µM | hit rate 0.37% among 200,000;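 active = inhibition from about 30%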;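 note: bluetongue infection of BSR cells; cell survival read as ATP light after 72 h; 0% = infected wells without compound and 100% = uninfected wells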
Mtb bLac sens: beta-lactam sensitization of Mtb H37Rv; AID 434955; inhibition, % at 25 µM; hit rate 0.27% among 330,000; M. tuberculosis H37Rv growth with meropenem, percent inhibition; hits of this screen are not shown here;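 active = about 74% or more and at least 40 points above the plate without the antibiotic, then above 30% in a dose series; inconclusive = first-round hits that could not be retested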;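 note: growth measured after seven days incubation then overnight dye step; 0% = bacteria only wells and 100% = bacteria with antibiotic; twin plates without the antibiotic show which effects depend on it; some results filed as inactive read as strong as hits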
RecA splice inh: inhibitors of M. tuberculosis RecA intein splicing; cell-free RecA intein splicing, fluorescence; inhibition, %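 (about 9 µM by stock and volumes)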; AID 2221; hit rate 0.75% among 290,000; P9WHJ3; in the data active = inhibition above about 30%; inconclusive = no clear call, values can overlap the other calls;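 note: 0% = vehicle wells and 100% = reference inhibitor control wells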
Target sequence (P9WHJ3 whole entry, looked up, canonical isoform): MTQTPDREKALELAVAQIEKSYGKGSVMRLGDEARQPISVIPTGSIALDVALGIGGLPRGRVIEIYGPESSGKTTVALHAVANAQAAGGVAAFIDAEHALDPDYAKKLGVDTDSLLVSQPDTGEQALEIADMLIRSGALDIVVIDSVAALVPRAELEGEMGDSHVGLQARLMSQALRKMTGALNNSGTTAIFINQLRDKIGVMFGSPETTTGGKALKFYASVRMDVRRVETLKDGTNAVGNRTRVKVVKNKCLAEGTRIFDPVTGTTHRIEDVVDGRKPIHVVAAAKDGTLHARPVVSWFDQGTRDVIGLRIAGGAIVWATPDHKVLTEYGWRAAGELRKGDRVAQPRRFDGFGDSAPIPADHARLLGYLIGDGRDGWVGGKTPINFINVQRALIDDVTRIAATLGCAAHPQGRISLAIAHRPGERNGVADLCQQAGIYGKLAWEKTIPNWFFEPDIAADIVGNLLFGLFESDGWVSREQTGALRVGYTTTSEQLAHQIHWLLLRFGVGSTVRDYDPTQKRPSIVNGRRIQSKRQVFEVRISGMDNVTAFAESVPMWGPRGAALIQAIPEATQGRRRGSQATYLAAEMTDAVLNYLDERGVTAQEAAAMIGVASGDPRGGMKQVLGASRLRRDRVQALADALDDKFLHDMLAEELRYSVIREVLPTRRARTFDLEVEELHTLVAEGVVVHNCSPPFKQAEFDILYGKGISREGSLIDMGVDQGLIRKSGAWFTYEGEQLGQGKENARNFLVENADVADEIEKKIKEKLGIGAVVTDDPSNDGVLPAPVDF
Mtb growth: M. tuberculosis H37Rv growth inhibitors, H37Rv strain (AID 1626); M. tuberculosis H37Rv growth inhibition; higher % means a stronger effect; one-dose inhibition, % at 10 µM; IC50 in µM for titrated hits; hit rate 0.95% among 220,000;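 active = confirmed in a dose series; inconclusive = inhibition above 80% but not taken into the dose series; inactive = below 80% or under 30% at every dose of the series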;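 note: bacteria incubated seven days before Alamar blue readout; 0% = bacteria only wells and 100% = bacteria with antibiotic wells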
Arbovirus inh repeat: second read-out of Arbovirus inh, no call of its own (marks repeat the call); inhibition, %; measured here: 10K subset replicate screen; many hits read low in the repeat;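 first of two repeat runs on a subset; 0% = infected and 100% = uninfected wells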
* marks the source's active call; other numbers are inactive results; ? = inconclusive; · = no result given.

SMILES	YopH PTP inh	Arbovirus inh	Mtb bLac sens	RecA splice inh	Mtb growth	others
CN1C(=O)N(c2nnc(C(C)(C)C)s2)C(=O)C1c1ccccc1 (centres undefined)	·	·	3	0.1	2%
COc1ccc(C(=O)OCC(=O)NCC2CCCCC2)cc1S(=O)(=O)N1CCCc2ccccc21	-19	11	-5	0.3	-5%
CSc1nsc(SCC(=O)N2CCCCC2)n1	·	-4	100	-1.0	?
Cc1ccc2c(c1)nc(NCCCO)n2C	-22	7	-1	1.2	-6%
CCCn1c(SCC(=O)NC23CC4CC(CC(C4)C2)C3)n[nH]c1=O	-6	-3	-13	·	3%
COc1ccc(-n2c(Cc3cccn3C)nnc2SCC(=O)N2CCCC2)cc1	-23	4	4	1.3	-7%	Arbovirus inh repeat=5
O=C(Cc1ccccc1[N+](=O)[O-])NCCC1=CCCCC1	·	0	-3	0.4	6%
CCOC(=O)C1=C(C(F)(F)F)Nc2ncnn2C1c1cc(OC)c(OC)cc1OC (centres undefined)	-17	1	3	5.1	-1%
Cc1nc2ccc(NC(=O)Cc3cccs3)cc2s1	-41	6	14	1.2	12%
COc1cc(OC)c(N(C)C(=O)c2cc3c(s2)-c2ccccc2S(=O)(=O)C3)cc1Cl	·	·	2	-0.6	·
CNC(=O)COc1ccc(S(=O)(=O)Nc2ccccc2)cc1	·	0	-7	-2.1	2%
CC(=O)c1nnn(-c2ccc([N+](=O)[O-])cc2C)c1C	·	5	-7	-1.8	-1%
Cc1ccc(C)c(S(=O)(=O)ON2C(=O)c3ccccc3C2=O)c1	-12	-3	0	13	3%
O=C(NNC(=O)c1ccccc1Cl)c1ccncc1	-10	0	2	-0.5	13%
CC1=CC(C)C2COC(c3ccc[n+](C)c3)C1C2C (centres undefined)	-23	-5	6	-1.5	3%
CCCc1cc(C(=O)OC)c(NC(=O)CCC(=O)O)s1	·	3	-4	-5.1	3%
CCOC(=O)C(CC)/C(C)=N\NC(=O)CCC(=O)Nc1ccc(Cl)cc1Cl (centres undefined)	·	4	9	-0.1	-4%
CCCCC(NC(=O)Cc1c(C)c2cc3c(C)c(C)oc3c(C)c2oc1=O)C(=O)O (centres undefined)	·	·	4	-8.4	·
O=C1c2ccccc2C(=O)N1OS(=O)(=O)c1ccc(F)cc1	·	·	3	-4.3	·
O=C(NC(=S)Nc1ccccc1N1CCOCC1)c1cccs1	-19	4	4	4.9	0%
COc1ccc(N(CC(=O)Nc2ccc(F)cc2F)S(=O)(=O)c2c(C)nn(C)c2C)cc1	·	·	-1	-0.2	·
O=C(CCNS(=O)(=O)c1ccccc1)N1CCCC1	·	·	-4	-0.6	·
CC1(C)CC(=O)C(=Cc2cn(CCC#N)nc2-c2ccc(F)cc2)C(=O)C1	-23	-2	4	·	8%
CN(CC(=O)N1CCCCCC1)S(=O)(=O)c1ccc(Br)cc1	·	·	-19	-0.7	·
CCCCOc1ccc(C(=O)N2CCC(C)CC2)cc1	32	1	-12	4.7	-10%
CCOc1ccc(S(=O)(=O)Nc2ccc(O)c(Sc3ncn[nH]3)c2)cc1	-24	-1	3	-5.1	·
CCCCc1ccc(NC(=O)C(C)CC)cc1 (centres undefined)	·	0	98	2.2	6.2µM*
Cc1noc(C)c1COc1ccccc1C(=O)NC1CCC(C)CC1 (centres undefined)	·	·	-13	2.2	·
CC1(C)C(c2cccs2)=[N+]([O-])C2(CCCCC2=O)N1O (centres undefined)	·	7	-3	0.8	-14%
O=C(Nc1cccc(Cl)c1)N1C[C@H]2C[C@@H](C1)c1cccc(=O)n1C2	·	·	-4	-3.5	·
CCC(=O)N1CCn2c1nc1ccccc12	-12	0	-3	-4.7	-10%
NC(=S)N/N=C/c1ccc2ccccc2c1	-24	-12	·	-2.9	31%
O=C(CSc1ccc2nnc(-c3cccs3)n2n1)N1CCCC1	·	7	-6	-2.9	-6%
Fc1ccc(-c2csc(N3CCC(c4ccccc4)C3)n2)cc1 (centres undefined)	-45	5	55	0.9	16%
CCN1CCN(CC(O)COc2cccc(OC)c2)CC1 (centres undefined)	0	-1	11	0.4	3%
Cc1oc(-c2cccs2)nc1CN1CCC(C(=O)N2CCCC2)CC1	·	4	-1	0.1	-4%
O=C(Nc1ccc(O)cc1)c1ccc(NC(=O)c2ccco2)cc1	·	·	4	-0.9	·
COc1cc(Cl)ccc1OCc1cc(C(=O)N2CCN(C)CC2)no1	·	·	0	0.1	·
Cc1cc(C)c2c(N)c(C(=O)N/N=C/c3cccnc3)sc2n1	·	·	-3	-6.0	4%
Cc1cc(NC(=O)Nc2c[nH]c(=O)[nH]c2=O)ccc1Br	·	·	3	2.3	·
COc1ccc(CN(CC2CCC(C(=O)O)CC2)C(=S)Nc2ccccc2C)cc1 (centres undefined)	·	5	4	-0.7	-6%
COc1cc2c(cc1OC)n(CC(=O)NC1CCCCCC1)n1c(C)cc(=O)nc21	·	·	0	0.2	·
CCO[C@@H]1OC(C(=O)N2CCOCC2)=C[C@H](c2ccc(C(F)(F)F)cc2)[C@H]1CCCO	·	-1	-5	-0.7	6%
CC(=O)c1ccc(C)cc1OC(=O)c1cccc(F)c1	·	16	-4	1.5	-3%
COc1cccc(CC(=O)N2CCCC(CCC(=O)N3CCN(c4ccccn4)CC3)C2)c1 (centres undefined)	·	-11	1	4.0	-13%
COc1cc(/C=C2\SC(=O)N(c3ccccc3Cl)C2=O)cc([N+](=O)[O-])c1O	·	4	·	2.2	-5%
COc1ccc(S(=O)(=O)N2CCCC2)cc1NC(=O)c1ccccc1	·	·	-4	1.4	·
Cn1ccnc1COc1ccc(/C=N/O)cc1	·	·	-3	-1.1	·
COc1ccc(/C=N/Nc2nc(C)nc(N)n2)cc1	·	·	-4	-2.2	·
CCCOc1ccc(C(=O)NCC(c2cccs2)N(C)C)cc1OC (centres undefined)	-11	-3	4	0.9	2%
CCOC(=O)CN(C(=O)COc1nc(-c2ccccc2)cc(C)c1C#N)c1ccc(F)cc1	·	·	-1	0.3	-8%
COc1cc(N)c(Cl)cc1Cl	·	0	7	-0.3	·
O=C1N[C@H](Cc2ccccc2)C(=O)N2[C@@H]3[C@H](C[C@@H]12)c1ccccc1N3OOSc1ccccc1	·	·	-7	3.7	-9%
O=C(Nc1nccs1)c1cccc2ccccc12	·	·	-3	1.9	·
Cc1ccc(Nc2nc(-c3sc(NC(=O)c4cccc(Cl)c4)nc3C)cs2)cc1	-1	-2	-5	1.9	-2%
CCOc1ccc(CN2CCNC(=O)C2CC(=O)NCc2cc(C)n(C)n2)cc1 (centres undefined)	·	·	3	1.0	·
COCCn1c(=O)[nH]c2cc(C(=O)Nc3cccc(F)c3)ccc2c1=O	·	3	0	-2.5	2%
COCCn1cnc2c1c(=O)n(CC#N)c(=O)n2Cc1ccccc1	·	·	4	-0.4	·
Cc1ccc(NC(=O)CC2(CC(=O)O)CCCC2)c(C)c1	·	·	-2	-0.5	·
O=C1CCC(=O)N1c1ccccc1	·	·	-10	1.1	·

A run of entries taken from the entries so far, for reference:
SMILES	YopH PTP inh	Arbovirus inh	Mtb bLac sens	RecA splice inh	Mtb growth	others
COCCn1c(=O)[nH]c2cc(C(=O)Nc3cccc(F)c3)ccc2c1=O	·	3	0	-2.5	2%
COCCn1cnc2c1c(=O)n(CC#N)c(=O)n2Cc1ccccc1	·	·	4	-0.4	·
Cc1ccc(NC(=O)CC2(CC(=O)O)CCCC2)c(C)c1	·	·	-2	-0.5	·
O=C1CCC(=O)N1c1ccccc1	·	·	-10	1.1	·

New compounds follow
SMILES	YopH PTP inh	Arbovirus inh	Mtb bLac sens	RecA splice inh	Mtb growth	others
O=C(NCC(=O)N(c1ccc(Cl)cc1)C(C(=O)NC1CCCC1)c1cccnc1)c1ccco1 (centres undefined)	·	·	-8	-0.4	·
O=C(O)c1ccc(S(=O)(=O)Nc2ccc3c(c2)OCCO3)cc1	·	·	-3	0.3	·
CCc1cccc(C)c1NC(=O)CN1C(=O)NC(Cc2ccccc2)C1=O (centres undefined)	·	2	1	-0.5	-4%
COc1ccc(C(c2c(NC(C)=O)sc3c2CCCC3)N2CCN(CCO)CC2)cc1OC (centres undefined)	·	1	-5	3.7	-7%
Cc1ncc(CN2CCCC(C(=O)c3sccc3C)C2)s1 (centres undefined)	·	-2	1	3.4	-5%
COc1cccc(CN2CCN(Cc3cccc4nonc34)CC2CCO)c1 (centres undefined)	·	1	0	5.8	-2%
CN(C)S(=O)(=O)c1cccc(NC(=O)CC23CC4CC(CC(C4)C2)C3)c1	·	·	5	4.4	·
FC(F)(F)c1ccc2c(c1)N1CCCC1CN2 (centres undefined)	·	4	-2	-2.1	9%
Cc1oc(-c2cccs2)nc1CSCC(=O)N1CCC2(CC1)OCCO2	-6	2	-11	·	-4%
COCCNC(=S)N1CCC(Cc2ccccc2)CC1	·	-9	-5	-1.1	0%
COC(=O)c1[nH]c2cc(OC)ccc2c1NC(=O)CN1CCC(C(N)=O)(N2CCCCC2)CC1	-25	7	6	0.3	-1%
CC(=O)NNC(=S)Nc1cccc(F)c1	·	·	-9	-0.6	-7%
COc1cc(/C=N/Nc2ccccc2)ccc1O	·	·	60	1.4	·
O=C(NCc1cn2ccsc2n1)c1cccs1	-6	7	0	0.2	3%	Arbovirus inh repeat=-1
O=S1(=O)N=C(N(CCO)/N=C/c2ccc(Br)cc2)c2ccccc21	·	·	-1	-1.3	·
COc1ccc(Nc2nc(NCC3CCCO3)c3ccccc3n2)c(OC)c1 (centres undefined)	·	14	12	4.5	7%
CC[C@@H](C)C(N)c1cn([C@@H](CCC(=O)O)C(=O)N2CCNCC2)nn1 (some centres undefined)	·	3	-3	-0.8	-19%
Cc1sc2nc(CN3CCCCC3)nc(N3CCN(C(=O)c4ccco4)CC3)c2c1C	·	-7	-4	-5.1	2%
COc1ccc(-c2nnn(CC(=O)N3CCN(c4ccc(F)cc4)CC3)n2)cc1	·	·	2	-2.2	4%
COc1ccc(Nc2nc(Nc3ccc(OC)cc3OC)nc(N3CCN(C)CC3)n2)c(OC)c1	-14	-29	52	0.7	?
O=P(OCC(F)(F)C(F)F)(N1CCCCC1)N1CCCCC1	-6	6	-11	0.6	5%	Arbovirus inh repeat=6
NC(=O)c1ccc(NC(=O)COC(=O)c2cccc(Oc3ccccc3)c2)cc1	-21	3	3	-0.7	4%
O=C(C1CC(c2ccc(F)cc2)=NO1)N1CCN(Cc2ccccc2)CC1 (centres undefined)	-32	5	-7	-2.2	-15%	Arbovirus inh repeat=-2
Fc1ccc(NC(=S)Nc2ccc(Cl)cc2Cl)cc1	·	13	4	·	-1%
Cc1nnc(-c2ccc(Cl)cc2)[nH]c1=O	·	7	4	0.1	6%
O=C1NC(=O)/C(=C/c2cccc([N+](=O)[O-])c2)N1	·	·	-2	1.1	-3%
O=C(Nc1cccnc1)C1CC(c2ccccc2O)=NO1 (centres undefined)	-11	3	3	-2.0	-6%
COc1ccccc1N1CCN(CC(O)COc2ccc(C)cc2C)CC1 (centres undefined)	·	·	2	0.2	·
Cc1ccc(S(=O)(=O)N(Cc2cccc(F)c2)C(=O)N2CCN(C)CC2)cc1	·	·	-1	-0.8	·
COC(=O)CSc1nnc(-c2sc3cc(OC)ccc3c2Cl)n1C	-14	8	97	2.0	26%
CCCCCCOc1ccc(N2C(=O)CC(NCc3ccc(S(N)(=O)=O)cc3)C2=O)cc1 (centres undefined)	·	·	-8	-0.3	-2%
COc1ccc(C(=O)CC(=O)C(=O)Nc2ccccc2OC)cc1	·	·	3	20	·
O=C(CNS(=O)(=O)c1ccc(Br)s1)N1CCN(C(=O)c2ccco2)CC1	-17	12	6	-4.0	-8%
CSc1ccc(S(=O)(=O)Nc2ccc(S(=O)(=O)Nc3ccc(C)cc3)cc2)cc1	-13	-32	-2	11	0%
Cc1ccc(-c2cc(C(=O)N3CCN(c4ccccc4O)CC3)c3ccccc3n2)o1	·	·	77	-1.7	·
Cc1cccc(NCc2cc(Cl)cc(Cl)c2O)n1	-4	8	9	-0.4	6%
CN(C)c1ccc(NC(=O)c2sc(SCC(=O)Nc3ccc(Br)cc3)nc2N)cc1	-35	-1	1	0.6	7%
NC(=O)c1nnsc1-c1ccc(-c2snnc2C(N)=O)cc1	·	·	6	-1.0	-16%
NC(=O)CSc1nnc(CNc2ccc(F)cc2)n1CC1CCCO1 (centres undefined)	-4	-1	-8	4.5	-2%
O=C(CSc1nc(CCC2CCCC2)nc2ccccc12)NCc1ccc2c(c1)OCO2	-14	-24	-3	7.8	2%
O=C(CCCN1C(=O)c2ccccc2C1=O)NCCc1ccc(OC(F)F)cc1	·	·	-1	2.1	·

These rows are one share of the data; count on the stated rates, not on these rows.
